N370S GC – N370S glucocerebrosidase modulation, Gaucher chaperone candidate. P04062. 330,000 compounds, 0.092% hits. N370S GC spleen homogenate, 4MU-glucoside fluorescence. Potency, µM (series often up to 59.4 µM), without a hit: top-dose activity change, negative = inhibition, usual class: inhibitors;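 also: 0% = full enzyme activity and -100% = no enzyme basal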
FEN1 inhibitor – inhibitors of human flap endonuclease 1. P39748. Recombinant FEN1 flap cleavage, fluorescence, 15 min. Potency, µM (doses to about 114 µM), for the others: at the highest dose activity change, negative = inhibition, hits mostly inhibitors. 390,000 compounds, 0.35% hits; also: nearly all actives have a fitted effect of over 65% in size
Target sequence (P39748 whole entry, looked up): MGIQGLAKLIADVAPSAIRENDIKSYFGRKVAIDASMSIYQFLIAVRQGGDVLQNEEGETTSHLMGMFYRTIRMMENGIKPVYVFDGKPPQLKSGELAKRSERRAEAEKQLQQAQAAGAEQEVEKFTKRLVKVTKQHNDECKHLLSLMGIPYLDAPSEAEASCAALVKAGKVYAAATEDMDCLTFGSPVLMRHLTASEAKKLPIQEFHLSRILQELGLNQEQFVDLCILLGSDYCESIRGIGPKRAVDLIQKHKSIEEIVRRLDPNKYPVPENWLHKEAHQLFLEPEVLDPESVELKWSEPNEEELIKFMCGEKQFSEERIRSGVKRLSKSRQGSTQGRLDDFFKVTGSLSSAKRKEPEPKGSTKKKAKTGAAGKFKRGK
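Compounds are tested as a concentration series against 10 nM FEN1; after a 15 min room-temperature preincubation, 50 nM substrate starts cleavage, with plate reads at 0 and 15 min. Normalized responses are fitted by a Hill equation.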
* marks the source's active call; other numbers are inactive results; u = inconclusive; x = no result given; & = joins results of further samples; [ ] = remark or other dose. Calls follow the shape of the dose curve; as a rule, active = well fitted curve in the direction sought with a large enough effect; inconclusive = small, poorly fitted or top-dose-only effect, or another doubt; inactive = no such curve, though single readings can be large; an effect the other way counts as inactive or inconclusive. Unless noted, % is scaled to controls: 0 for no effect and ±100 for the full control effect; potency is read from the fitted curve at half-maximal effect.

The line under a structure holds: N370S GC | FEN1 inhibitor
> COc1ccc(NC(=O)CSc2nc(C)cc(C)n2)c([N+](=O)[O-])c1
  u | 5.0%
> Cc1ccc(Cl)cc1N1C(=O)CC(Sc2ncccn2)C1=O (stereo not drawn)
  -2.9% | 3.7%
> O=C(Nc1ccccc1)N1C(=O)C2(OCCO2)c2ccccc21
  1.3% | 13.1%
> CCCNC(=O)c1ccccc1N1CCN(CCCCN2C(=O)C3CCCCN3C2=O)CC1 (stereo not drawn)
  -2.8% | -5.1%
> COc1cccc(OC)c1OCCOCCN1CCN(C)CC1
  -7.0% | 1.1%
> Cc1nnc(SCc2ccccc2Cl)n1CC1CCCO1 (stereo not drawn)
  -2.2% | -0.3%
> Cn1nccc1C(=O)Nc1sc2c(c1C#N)CCCC2
  14.7% | 11.6%
> CC(C)CNc1c(N)n(CC(C)C)c(=O)[nH]c1=O
  6.0% | 16.7%
> COc1ccc(OC)c(NC(=O)CSc2nnc(C3CCCCC3)o2)c1
  9.2% | 2.4%
> O=c1cc(O)c2sc(Nc3ccc(F)cc3)nc2[nH]1
  u | -4.2%
> O=C1Nc2ccccc2Oc2cc(Oc3cccc(Cl)c3)ccc21
  x | -6.9%
> COc1ccccc1N1CCN(C2CC(=O)N(c3ccc(F)cc3)C2=O)CC1 (stereo not drawn)
  1.5% | -1.9%
> O=C(Nc1cc(-c2ccccc2)sc1C(=O)O)c1cccc(F)c1
  16.3% | u
> C#CCNC(=O)C1=C[C@@H](c2ccccc2)C[C@@H](OCc2ccc(CO)cc2)O1
  14.0% | -10.1%
> COc1ccc(/C=N/NC(=O)c2ccc(NC(=O)c3cccc([N+](=O)[O-])c3)cc2)c(OC)c1
  5.0% | -9.4%

(list continues)
The line under a structure holds: N370S GC | FEN1 inhibitor
> Cc1cccc(-n2c(C)cc(/C=C3\NC(=O)NC3=O)c2C)c1
  -7.3% | 13.0%
> CC(=O)c1c(C)[nH]c(C(=O)Nc2cccc(C)c2C)c1C
  -10.0% | -13.2%
> COc1ccc(N(CC(=O)N2CCN(c3cccc(C)c3C)CC2)S(=O)(=O)c2c(C)noc2C)cc1
  0.9% | -7.7%&-15.0%
> Cc1ccc(CNC(=O)c2nnn(CC(=O)Nc3cccc(C)c3C)c2N)cc1
  -2.4% | -7.1%
> CCOc1ccc(N(CC)S(=O)(=O)N2CCCC(C(=O)Nc3cc(Cl)ccc3C)C2)cc1 (stereo not drawn)
  x | -9.6%
> COc1ccc(/C=C/c2c([N+](=O)[O-])c(=O)n(C)c(=O)n2C)cc1OC
  3.3% | 48.2%[activator]
> COc1ccccc1N1CC(C(=O)Nc2nnc(SCC(=O)NC(C)C)s2)CC1=O (stereo not drawn)
  -13.0% | -4.1%
> O=C(N/N=C/c1sc(N2CCOCC2)nc1-c1ccccc1)c1cccc(S(=O)(=O)N2CCOCC2)c1
  -14.2% | 6.8%
> CCN(CC)S(=O)(=O)c1ccc(N2CCOCC2)c(NC(=O)C(C)Oc2ccc(F)cc2)c1 (stereo not drawn)
  x | -18.6%
> Cc1oc(-c2ccccc2)nc1CS(=O)CC(=O)N1CCc2ccccc2C1 (stereo not drawn)
  2.7% | -7.0%
> O=C(Nc1ncccn1)c1cc(-c2ccc(F)cc2)nc2ccccc12
  10.4% | -3.6%
> CCOc1ccccc1NC(=O)C1CCCN1S(=O)(=O)c1ccc2c(c1)C(C)(C)C(=O)N2C (stereo not drawn)
  x | -6.8%
> Cc1ccc(-n2c(SCC(=O)Nc3ccc(Cl)cc3)nc(O)cc2=O)cc1
  4.3% | -12.5%
> COc1ccccc1Nc1ncnc2c1nc1n2CCCC1
  x | 6.7%
> CC1(C)OC(=O)C(=CNNc2c(Cl)cc(Cl)cc2Cl)C(=O)O1
  -4.2% | 5.2%

Going on with the list.
The line under a structure holds: N370S GC | FEN1 inhibitor
> Cc1nc(SC2CCOC2=O)c2c(C)c(C)sc2n1 (stereo not drawn)
  13.6% | -4.6%
> CN(C)c1cc[n+](CC(=O)Nc2ccc(OC(F)F)cc2)cc1
  -10.1% | -8.8%
> Cc1ccccc1N(CC(=O)NCCc1ccccc1)C(=O)c1ccc(N2CCCC2)nc1
  5.3%[2.35 µM] | 1.4%
> O=C(Cc1cccs1)Nc1ccc(F)c(S(=O)(=O)N2CCOCC2)c1
  x | 21.2%
> COc1ccc(OC)c(NC(=O)CSc2nc3c(c(=O)n(C)c(=O)n3C)n2C)c1
  8.3% | -5.6%
> COC(=O)NNC(=O)c1cccc(C)c1
  -19.8% | 9.7%
> Cc1cc2nc3n(c2cc1C)CC1CC(C(=O)NCc2cccc(Br)c2)N(C)C31 (stereo not drawn)
  -5.0% | 13.6%
> CS(=O)(=O)c1ccc(C(=O)NNC(=O)c2cccs2)cc1
  x | -12.1%
> CCC(=O)N=c1ccn(C2=Nc3ccccc3NC2=C(C#N)C#N)cc1
  -6.4% | -12.4%
> CN(C)CCN1C(=O)C(=O)/C(=C(/O)c2ccc(F)cc2)C1c1ccccc1 (stereo not drawn)
  -1.5% | 1.3%
> Cc1ccccc1NC(=O)CC1c2ccccc2CC(C)(C)N1C (stereo not drawn)
  -2.8% | 20.9%
> Cc1ccc2[nH]cc(/C=C/c3cc[n+](C)cc3)c2c1
  -20.7% | u
> CC(=O)N1CCC2(CCCN(c3cccc(-c4ccccc4)c3)C2)CC1
  3.8% | x
> COc1ccc(Cl)cc1C(=O)N1CCC2(CC1)CC(=O)c1ccccc1O2
  -4.0% | -1.0%
> CN(CC(=O)N1CCc2[nH]c3ccc(F)cc3c2C1)CC1OCCO1
  -13.4% | 8.9%

Look-ups from the list:
FEN1 inhibitor with CS(=O)(=O)c1ccc(C(=O)NNC(=O)c2cccs2)cc1 → -12.1%
N370S GC with COC(=O)NNC(=O)c1cccc(C)c1 → -19.8%
FEN1 inhibitor with Cc1cc2nc3n(c2cc1C)CC1CC(C(=O)NCc2cccc(Br)c2)N(C)C31 (stereo not drawn) → 13.6%
N370S GC with CN(CC(=O)N1CCc2[nH]c3ccc(F)cc3c2C1)CC1OCCO1 → -13.4%

Other results follow.
The line under a structure holds: N370S GC | FEN1 inhibitor
> O=C(COC(=O)/C=C/c1ccccc1Cl)NC1CCCCCC1
  14.0% | 0.4%
> CC1(C)CC2c3cccc(C(=O)O)c3C(=O)N2c2c1ccc1ccccc21 (stereo not drawn)
  0.6% | 4.5%
> COc1ccc(C(=O)/C=C2\Sc3ccccc3N2C)cc1
  12.2% | u
> O=C(Nc1ccc(Br)cc1)C1CCCN(S(=O)(=O)c2ccc(Br)s2)C1 (stereo not drawn)
  x | 12.7%
> CCOc1ccc(NC(=S)N2CCC(C(N)=O)CC2)cc1
  -2.6% | 1.2%
> N#Cc1ccccc1NC(=O)CN(Cc1ccccc1)Cc1ccccc1
  29.2% | -2.3%
> COc1cc(/C=N/NC(=O)c2sc(N)c(C#N)c2C)ccc1O
  4.6% | -18.4%
> O=C(NC1CC1)C1CCC(=O)N1C1CCCC1 (stereo not drawn)
  8.6% | -6.5%
> CS(=O)(=O)N1CCN(C2C3CC4CC(C3)CC2C4)CC1 (stereo not drawn)
  -13.1% | 2.9%
> Cc1ccc(NC(=O)CSc2ncccc2C(=O)Oc2cccc([N+](=O)[O-])c2)cc1Cl
  8.9% | -2.1%
> Cc1ccc2nc(SC(C)C(=O)N3CCOCC3)[nH]c2c1 (stereo not drawn)
  1.6% | 1.5%
> CN(C(=O)Cn1cnc([N+](=O)[O-])n1)C1CCCCC1
  0.5% | 9.7%
> COc1cccc(C(=O)NNC(=S)NC2CCCCC2)c1
  10.0% | 5.5%
> COc1ccc(CCNS(=O)(=O)c2ccc3c(c2)NC(=O)CS3)cc1OC
  -13.3% | -3.0%
> COc1cc2c(cc1OC)C(c1cccs1)N(C(=O)c1cccc(S(=O)(=O)N(C)C)c1)CC2 (stereo not drawn)
  -24.3% | 9.3%

A second format for 4 compounds above:
compound | N370S GC | FEN1 inhibitor
Cc1ccc(CNC(=O)c2nnn(CC(=O)Nc3cccc(C)c3C)c2N)cc1 | -2.4% | -7.1%
CCOc1ccc(N(CC)S(=O)(=O)N2CCCC(C(=O)Nc3cc(Cl)ccc3C)C2)cc1 (stereo not drawn) | x | -9.6%
COc1ccc(/C=C/c2c([N+](=O)[O-])c(=O)n(C)c(=O)n2C)cc1OC | 3.3% | 48.2%[activator]
COc1ccccc1N1CC(C(=O)Nc2nnc(SCC(=O)NC(C)C)s2)CC1=O (stereo not drawn) | -13.0% | -4.1%

Next part
The line under a structure holds: N370S GC | FEN1 inhibitor
> CNC(=S)NC12CC3CC(CC(C3)C1)C2
  -23.6% | 5.2%
> COc1ccc(Oc2ncc3nc(-c4cccc(C#N)c4)c(=O)n(CCC#N)c3n2)cc1
  -9.6% | x
> Cc1cccc2c(=O)c(C(=O)NCCc3ccccc3)c[nH]c12
  u | -2.9%
> Cc1nc(N)sc1-c1csc(N(C)c2ccc(O)cc2)n1
  -26.4% | -9.5%
> CC(=O)Nc1ccc(NC(=O)Cn2cc3c(n2)CCCCC3)cc1
  x | -1.8%
> CCOc1cc(C)nc(N2CCCC(C(=O)NCc3ccccc3F)C2)n1 (stereo not drawn)
  12.9% | -3.4%
> CC(=O)c1cccc(NC(=O)c2cccc(S(=O)(=O)N(C)C)c2)c1
  -0.3% | -0.8%
> O=C(CC1(O)C(=O)Nc2ccccc21)c1cccc(Br)c1 (stereo not drawn)
  10.0% | -6.9%
> O=C(CCC(=O)Nc1ccc(F)cc1)N/N=C/c1ccncc1
  4.1% | 12.4%
> CC1(C(=O)O)CCC(C(=O)NCCc2ccccc2)C1(C)C (stereo not drawn)
  3.6% | -0.1%
> CCOC(=O)c1c(NC(=O)c2c(C)noc2C)sc2c1CCCCC2
  1.4% | -1.1%
> O=C(Nc1nnc(-c2ccco2)s1)C1CCCCC1
  -0.1% | 1.2%
> O=C(CNC(=O)c1cccs1)N/N=C/c1ccccc1[N+](=O)[O-]
  -0.7% | -9.1%
> C=CCOc1cccc(CNc2ccc3[nH]c(=O)[nH]c3c2)c1
  -12.6% | 1.9%
> S=c1[nH]nc(Cn2nnc3ccccc32)n1-c1ccccc1
  -1.6% | -6.1%

Further compounds
The line under a structure holds: N370S GC | FEN1 inhibitor
> CCN(CC)Cc1c(O)ccc2c1O/C(=C\C=C\c1ccccc1)C2=O
  -19.2% | 3.7%
> CCOC(=O)c1ccc(NC(=O)CCS(=O)(=O)c2ccc3c(c2)oc(=O)n3C)cc1
  x | -3.4%
> CC1CCN(S(=O)(=O)c2cccc(C(=O)Nc3nccs3)c2)CC1
  5.0% | 0.5%
> O=C(O)Cn1cc(/C=C2/NC(=O)N(c3ccc(Cl)cc3)C2=O)c2ccccc21
  2.2% | 15.1%
> CC(C)Cn1c(-c2ccco2)n[nH]c1=S
  6.5% | 4.5%
> C=CCNc1cnn(-c2ccc(C)cc2)c(=O)c1Cl
  -6.3% | -6.5%
> Cc1noc(C)c1S(=O)(=O)NC1CCN(Cc2ccccc2)CC1
  2.3% | 22.1%
> O=C1c2[nH]nc(-c3ccccc3O)c2C(c2cccc(Cl)c2)N1Cc1ccco1 (stereo not drawn)
  4.6% | -15.1%
> O=C(OCc1cc(=O)n2nc(C3CCCCC3)sc2n1)c1ccc(F)cc1
  x | -3.3%
> Cc1cc(C)nc(SCC(=O)NCc2ccco2)n1
  -21.0% | -2.0%
> O=C(CCC(=O)N1CCc2ccccc21)Nc1ccccc1
  0.3% | -3.4%
> CCOC(=O)c1cnc(SCC(=O)NCc2cccs2)nc1N
  0.0% | -3.7%
> CC[C@@H](C)C(C(=O)N1CCN(C(=O)OC(C)(C)C)CC1)n1cc(-c2cn([C@@H](C)C(=O)N3CCN(C(=O)OC(C)(C)C)CC3)nn2)nn1 (stereo partly drawn)
  -7.7% | -14.1%
> O=C(NC(=S)Nc1ccccc1Br)c1cccnc1
  -13.9% | 17.9%
> Cc1ccc(Nc2ncnc3c2cnn3C)c(C)c1
  -0.8% | -3.2%

Following part:
The line under a structure holds: N370S GC | FEN1 inhibitor
> Cc1ccc(Cl)cc1NC(=O)N1CCc2cc(S(=O)(=O)N3CCC(C)CC3)ccc21
  x | 6.8%
> O=C(/C(=C/O)N=Nc1cccc(C(F)(F)F)c1)c1ccccc1
  7.0% | -6.9%
> Cc1ccc(NC(=O)Cn2ccsc2=N)c([N+](=O)[O-])c1
  -9.1% | 1.0%
> CCOC(=O)C1CC(c2ccccc2)=NNC1=O (stereo not drawn)
  -2.4% | 4.5%

One compound at a time, as listed above. Order of values: N370S GC, FEN1 inhibitor
Results for O=C(Nc1cc(-c2ccccc2)sc1C(=O)O)c1cccc(F)c1 = 16.3%, u
Results for CC1(C(=O)O)CCC(C(=O)NCCc2ccccc2)C1(C)C (stereo not drawn) = 3.6%, -0.1%
Results for COc1cc(/C=N/NC(=O)c2sc(N)c(C#N)c2C)ccc1O = 4.6%, -18.4%
Results for CC1(C)OC(=O)C(=CNNc2c(Cl)cc(Cl)cc2Cl)C(=O)O1 = -4.2%, 5.2%
Results for O=C(Nc1nnc(-c2ccco2)s1)C1CCCCC1 = -0.1%, 1.2%

Some of the compounds tested; most or all hits stand in other tables.
